VACV mCherry inh = qHTS for Stage-Specific Inhibitors of Vaccinia Orthopoxvirus: mCherry Reporter Primary qHTS; 310,000 tested, 0.63% active; Potency, µM (titrated, usually from 36.5 µM), for the others: at the highest dose activity change, negative = inhibition, most hits filed as inhibitors; Vaccinia virus mCherry reporter infection, fluorescence; about a quarter of the inactives have no number; active = well fitted inhibition curve with a large enough effect; inconclusive = small, poorly fitted or top-dose-only effect; inactive = no such curve, though single readings can be large or run the other way; tested in A549 cells; also: nearly all actives have a fitted effect of over 35% in size; inactives centre near -10
VACV Venus inh = qHTS for Stage-Specific Inhibitors of Vaccinia Orthopoxvirus: Venus Reporter Primary qHTS. 330,000 tested, 0.46% active. Potency, µM (top dose mostly 36.5 µM), for the others: top-dose activity change, negative = inhibition, actives largely listed as inhibitors. Vaccinia virus Venus reporter expression, fluorescence; active means well fitted inhibition curve with a large enough effect; inconclusive means small, poorly fitted or top-dose-only effect; inactive means no such curve, though single readings can be large or run the other way; tested in A549 cells; also: nearly all actives have a fitted effect of over 30% in size; inactives centre near -10
The depositor's hits bear a star; i = inactive; u = inconclusive; x = not tested or not shown; [ ] = another dose, or the depositor's remark. % is scaled to controls: 0 for no effect and ±100 for the full control effect; potency is read from the fitted curve at half-maximal effect.

SMILES	VACV mCherry inh	VACV Venus inh
CCCc1cc(C(=O)Nc2sc3c(c2C#N)CCC3)no1	-34%	-4%
Cc1ccc(OCCCCn2nnc3sc4c(c3c2=O)CCC(C)C4)cc1 (configuration not stated)	-4%	-5%
O=C(CSc1nnc(-c2ccccc2)o1)NC1CCCC1	-1%	-17%
CCOc1ccc(-c2cc(C(=O)N3CCN(c4cccc(C)c4)C(C)C3)c3ccccc3n2)cc1 (configuration not stated)	u	-27%
COc1ccc(NC(=O)C(=O)NCc2ccncc2)c(OC)c1	-22%	-15%
O=C(CNC(=O)c1ccc(OC(F)F)cc1)NCc1ccccn1	i	-2%
O=C(Cc1ccc(NC(=O)C2CCN(C(=O)C3CCCCC3)CC2)cc1)Nc1ccc(C(=O)N2CCOCC2)cc1	-7%	-6%
COc1ccc(-c2[nH]ncc2CN2CCCCCCC2)c(OC)c1	10%	9%
Cc1ccccc1C(=O)Nc1ccnn1C1CCN(C(=O)c2ccoc2)CC1	i	-8%
CC(C)[Si]1(C(C)C)OCC2OC(n3cnc4c(N)ncnc43)C(N)C2O[Si](C(C)C)(C(C)C)O1 (configuration not stated)	-30%	-28%

Single records, from the list above. Order of values: VACV mCherry inh, VACV Venus inh
`O=C(Cc1ccc(NC(=O)C2CCN(C(=O)C3CCCCC3)CC2)cc1)Nc1ccc(C(=O)N2CCOCC2)cc1` is listed as -7%, -6%
`Cc1ccc(OCCCCn2nnc3sc4c(c3c2=O)CCC(C)C4)cc1` (configuration not stated) is listed as -4%, -5%
`COc1ccc(NC(=O)C(=O)NCc2ccncc2)c(OC)c1` is listed as -22%, -15%

(cont.)
SMILES	VACV mCherry inh	VACV Venus inh
COc1ccc(CCNC(=O)c2cnc3scc(C)n3c2=O)cc1OC	-5%	-14%
CC(C)OC(=O)c1cccc(-c2ccc(C=O)o2)c1	-8%	-17%
O=C(Nc1cccc(Cl)c1)C1CCN(C(=O)c2cccs2)CC1	i	8%
O=C(c1cc(=O)c2ccccc2o1)N1CCCc2ccccc21	i	-2%
CC(=O)Nc1ccc(/C=C(\C#N)S(=O)(=O)c2ccc(C)cc2)cc1	i	4%
CCCN(CCC)CCCNC(=O)c1cc2c(-c3ccc(Cl)cc3)nn(C)c2s1	u	-22%
Cc1nn(CC(=O)N2CCN(c3ccccc3)CC2)c(=O)c2cc3sccc3n12	-6%	0%
CC(=O)N1[C@H](Cc2ccccc2)C=C[C@]1(C)C(=O)NCc1ccc(C)o1	i	-14%
NC(=O)c1ccsc1NC(=O)C1CC1	-10%	-16%
O=C(c1cc2c(c(-c3cccc(-c4ccncc4)c3)n1)[C@H](CCO)N(C(=O)c1ccc3c(c1)OCO3)C2)N1CCOCC1	-8%	-2%
O=C(Cc1cccs1)NC(Cc1c[nH]c2ccccc12)C(=O)O (configuration not stated)	i	1%
COc1cc2c(cc1NC(=O)c1cccc(S(=O)(=O)N(C)C)c1)oc1ccccc12	u	u
CCCCn1c(O)c(C(C)=Nc2ccc3c(c2)CCC3)c(=O)[nH]c1=O	i	0%
CCC1(C)Cc2ccccc2-c2[nH][nH]c(=O)c21 (configuration not stated)	-8%	-12%
O=C(c1ccc(S(=O)(=O)N2CCOCC2)cc1)N(c1ccc(F)cc1)C1C=CS(=O)(=O)C1 (configuration not stated)	-10%	-17%
Cc1ccc(-c2cccc([C@H]3[C@@H]4C=CC[C@@H](C)[C@@H]4C(=O)N3Cc3ccccc3)c2)cc1	i	-15%
O=C(c1cnccn1)N1CCN(C/C=C/c2ccccc2)CC1	x	-11%
Cc1c(NC(=O)c2cc(-c3ccc(Cl)s3)nc3ccccc23)c(=O)n(-c2ccccc2)n1C	x	-9%
CCC(C)NC(=O)c1cc(-c2ccc3c(c2)OCO3)on1 (configuration not stated)	-1%	-9%
Nc1ccc(Br)c2cccnc12	-18%	-20%
COc1ccc(NC(=O)C2CCN(S(=O)(=O)c3cccc4nonc34)CC2)cc1	7%	-2%
Cc1ccc(NC(=S)NC(=O)c2ccc(F)cc2)cc1S(=O)(=O)Nc1cccc(Cl)c1	u	u
COc1ccc(-c2nc(CSCC(=O)NCCc3ccc(C)cc3)c(C)o2)cc1OC	-10%	-16%
c1cc(-c2ccc3[nH]ccc3c2)n2ccnc2c1	-9%	-9%
O=C(NCC(c1cccnc1)N1CCN(c2ccccc2F)CC1)c1ccc(F)cc1 (configuration not stated)	-10%	-20%
COC(=O)C1=CN(Cc2cccs2)C=C(C(=O)OC)C1c1ccc(OC)cc1OC	-9%	-2%
Cc1cc(C)cc(C(=O)Nc2ccc(N3CCCC3)cc2)c1	-11%	-14%
Cc1ccc(NC(=O)c2cccc(S(=O)(=O)N3CCN(c4ccc(F)cc4)CC3)c2)nc1	u	u
CCOc1cc2[nH]c(=O)n(CCCC(=O)N3CCN(c4ccc(OC)cc4)CC3)c(=O)c2cc1OCC	-12%	-14%
O=C(c1ccc(C#CC2(O)CCCCC2)cc1)N1CCN(C(c2ccccc2)c2ccccc2)CC1	x	u
Fc1ccccc1-c1nc(N2CCCCC2)c2ccccc2n1	-23%	-17%
O=C(Nc1ccc2c(c1)OCCO2)C1CCN(c2ncccn2)CC1	-10%	-15%
CCCc1nnc(-c2ccc(OC)cc2)o1	-8%	-2%
C=C1CC2C(=O)N(Cc3ccccc3)C(C(=O)OCC)(C(=O)OCC)C1N2C(=O)OC(C)(C)C (configuration not stated)	i	-23%
CCOC(=O)C(C)Oc1ccc(C2NC(=O)NC(C)=C2C(C)=O)cc1Br (configuration not stated)	-2%	-10%
Cc1nc(N2C(=O)C(=O)/C(=C(/O)c3ccccc3)C2c2ccco2)sc1C (configuration not stated)	x	-7%
CCOC(=O)N1CCN(C(=O)CCn2nc(-c3ccccc3)ccc2=O)CC1	-10%	-4%
COC(=O)c1ccc(-n2nnc(-c3nsc(NC(=O)c4ccc(Cl)cc4)n3)c2C)cc1	2%	5%
CCOC(=O)CCn1c2nc(C)cc(C)c2c(=O)n1-c1ccccc1	-19%	-4%
CCOc1cccc(NC(=O)C2CC(=O)N(C)C(=Nc3ccc(OC)cc3)S2)c1 (configuration not stated)	-13%	-6%
COc1cc(C(=O)NCC(=O)N/N=C/c2ccc(-c3ccc([N+](=O)[O-])cc3)o2)cc(OC)c1OC	-20%	u
CCOc1ccc(C2C(C(=O)O)CCC(=O)N2C2CCCCC2)cc1 (configuration not stated)	-5%	-3%
CN1C[C@@H]2[C@@H]3C(=O)N(C)C(=O)[C@@H]3[C@](C)(C1=O)N2C(=O)c1ccc(Br)cc1	-6%	-2%
CCc1nnc2n1N=C(c1ccc(Cl)cc1Cl)CS2	-5%	-14%
CCOc1ccc(-n2c(O)c(/C=N/Nc3nc(C)cc(C)n3)c3ccccc3c2=O)cc1	4%	5%
O=C(CSc1nnc(-c2ccc(Cl)cc2Cl)n1C1CCCCC1)NC1CCS(=O)(=O)C1 (configuration not stated)	u	-26%
O=C(NCCCn1ccnc1)c1cc2ccccc2oc1=O	i	-15%
CCOc1ccc(NC(=O)CCC(=O)NNC(=O)c2ccco2)cc1	i	-2%
COc1ccc2c(CC(=O)OCc3nc4ccsc4c(=O)[nH]3)coc2c1	i	-10%
OCCc1c[nH]c2cc(F)ccc12	i	-1%

Part of the list above in order of SMILES length, highest first:
SMILES	VACV mCherry inh	VACV Venus inh
CN1C[C@@H]2[C@@H]3C(=O)N(C)C(=O)[C@@H]3[C@](C)(C1=O)N2C(=O)c1ccc(Br)cc1	-6%	-2%
COc1cc(C(=O)NCC(=O)N/N=C/c2ccc(-c3ccc([N+](=O)[O-])cc3)o2)cc(OC)c1OC	-20%	u
CCOc1cc2[nH]c(=O)n(CCCC(=O)N3CCN(c4ccc(OC)cc4)CC3)c(=O)c2cc1OCC	-12%	-14%
O=C(c1ccc(C#CC2(O)CCCCC2)cc1)N1CCN(C(c2ccccc2)c2ccccc2)CC1	x	u
COC(=O)c1ccc(-n2nnc(-c3nsc(NC(=O)c4ccc(Cl)cc4)n3)c2C)cc1	2%	5%
CCOc1ccc(-n2c(O)c(/C=N/Nc3nc(C)cc(C)n3)c3ccccc3c2=O)cc1	4%	5%
CCOc1cccc(NC(=O)C2CC(=O)N(C)C(=Nc3ccc(OC)cc3)S2)c1 (configuration not stated)	-13%	-6%
CCOC(=O)C(C)Oc1ccc(C2NC(=O)NC(C)=C2C(C)=O)cc1Br (configuration not stated)	-2%	-10%
CCOC(=O)N1CCN(C(=O)CCn2nc(-c3ccccc3)ccc2=O)CC1	-10%	-4%
COc1ccc2c(CC(=O)OCc3nc4ccsc4c(=O)[nH]3)coc2c1	i	-10%
CCOC(=O)CCn1c2nc(C)cc(C)c2c(=O)n1-c1ccccc1	-19%	-4%
CCOc1ccc(C2C(C(=O)O)CCC(=O)N2C2CCCCC2)cc1 (configuration not stated)	-5%	-3%
CCOc1ccc(NC(=O)CCC(=O)NNC(=O)c2ccco2)cc1	i	-2%
Fc1ccccc1-c1nc(N2CCCCC2)c2ccccc2n1	-23%	-17%
CCc1nnc2n1N=C(c1ccc(Cl)cc1Cl)CS2	-5%	-14%
CCCc1nnc(-c2ccc(OC)cc2)o1	-8%	-2%
OCCc1c[nH]c2cc(F)ccc12	i	-1%

Next part.
SMILES	VACV mCherry inh	VACV Venus inh
Clc1nn2cnnc2c2ccccc12	i	-1%
COc1ccc(N2CC(NC(=O)c3ccco3)CC2=O)cc1 (configuration not stated)	1%	-8%
CCN1C[C@]2(COC)[C@H](O)C[C@H](OC)[C@]34C1C([C@H](OC)[C@H]23)[C@]1(OC(C)=O)C2[C@@H](OC(=O)c3ccccc3)C(O)(C[C@H]24)[C@@H](OC)[C@@H]1O	-16%	-7%
COc1ccccc1CNC(=O)COC(=O)/C=C/c1ccc2c(c1)OCO2	-16%	-6%
COCCn1c(SCC(=O)NCc2ccc3c(c2)OCO3)nc2ccccc2c1=O	i	-15%
CCOc1ccc(C(=O)c2cn(CC(=O)Nc3ccc(C)c(Cl)c3)c3ccc(OCC)cc3c2=O)cc1	-12%	-16%
N=c1c(C(=O)NCc2ccco2)cc2c(=O)n3ccccc3nc2n1C1CCCC1	-16%	5%
Cc1c(C(=O)N2CCCC2)sc(NC(=O)c2cccs2)c1C#N	i	-13%
CCN(CC(=O)NCc1ccncc1)S(=O)(=O)c1cc(Cl)ccc1Cl	-4%	-16%
C[C@H](NC(=O)c1nc[nH]c1C(=O)N[C@H](C)c1ccccc1)C(=O)OCc1ccccc1	i	-8%
O=C(CCc1nnc(Cc2c[nH]c3ccccc23)o1)NC1CCCC1	i	-2%
COc1ccc(OCc2nn3c(Cn4cnc5ccccc54)nnc3s2)cc1	-3%	-25%
Cc1ccc(CCNC(=O)c2cc3ccccn3n2)cc1	-9%	0%
O=C(Nc1ccc(-c2nnco2)cc1)c1ccccc1	-19%	-10%
Cc1c(CC(=O)NCCCC(=O)O)c(=O)oc2cc3c(cc12)CCC(C)(C)O3	-4%	-6%
CCc1nc2c(OCc3ccccc3OC)cccn2c1N(C)C(=O)C(C)C	i	-8%
O=C(O)C1CCCCC1C(=O)NCCCCc1ccccc1 (configuration not stated)	x	1%
CN1Cc2ccccc2[C@@H]2c3cccc4[nH]cc(c34)C[C@H]21	-29%	-28%
CC(C)(C)NC(=O)CSc1nnc(C2CC2)n1-c1ccccc1	-14%	-1%
Cc1cc(C(=O)Nc2cccc3ccccc23)oc1C	-5%	-8%
CCOc1ccccc1NC(=O)COC(=O)C1CCC(=O)N1 (configuration not stated)	0%	8%
COC(=O)c1ccccc1Sc1c(/C=N/OCc2ccc(Cl)cc2)c(C(F)(F)F)nn1C	-14%	-6%
COc1ccccc1C(=O)NCCC(=O)NCC1CCCCC1	-11%	6%
Cc1ccc(-c2ccc(C#N)c(=O)n2CC(=O)N(C)C)cc1	-13%	1%
O=c1c2cc(NC(=S)NC3CC3)ccc2nc2n1CCCCC2	2%	-4%
O=C(Nc1ccccc1)N1CCN(CCc2ccccc2)CC1	-17%	-12%
COc1ccccc1N(C(=O)c1ccco1)C(C(=O)NC1CCCC1)c1ccncc1 (configuration not stated)	-8%	-2%
Cc1cc(C)c(O)c(-c2cc(C(=O)Nc3c(C)n(C)n(-c4ccccc4)c3=O)[nH]n2)c1	-1%[7.34 µM]	0%[7.34 µM]
O=C(N/N=C/c1cccnc1)c1cc(-c2ccccc2Cl)nc2ccccc12	-2%	-6%
CCCCCn1c(=O)c(-c2nc3ccccc3[nH]2)c(O)c2ccccc21	-3%	-4%
Cc1cc(C)nc(SCSc2nc(C)cc(C)n2)n1	-17%	-13%
CCN(CC)C(=O)c1[nH]cnc1C(=O)NCC(=O)OC(C)(C)C	-15%	-9%
CC(C)Cc1nnc(NC(=O)CN2C(=O)NC3(CCCC3)C2=O)s1	-13%	-3%
N#Cc1cc(NC(=O)c2ccc(Cl)cc2)ccc1Sc1ccccc1	u	u
Cc1ccc(CNc2nc3ccc(C)cc3n3cnnc23)cc1	-23%	2%
COC(=O)c1ccc(NS(=O)(=O)c2ccc(-n3cccn3)cc2)cc1	7%	0%
Cc1ccc(S(=O)(=O)Nc2nc(C)c(C(=O)NNS(=O)(=O)c3cc(C)ccc3C)s2)cc1	i	-15%
Cc1c(C(=O)NC(=S)NCc2cccnc2)cccc1[N+](=O)[O-]	-26%	-13%
Cc1ccc(C(C)C)c2c1C(c1ccc3c(c1)OCO3)CC(=O)O2 (configuration not stated)	u	-12%
CC(=O)Nc1ccc(S(=O)(=O)N2CCN(S(=O)(=O)c3ccc(NC(C)=O)cc3)CC2)cc1	i	-2%
COc1cccc(N2CCN(C(=O)c3cnn(-c4ccc(C)cc4C)c3C3CCN(C(=O)OC(C)(C)C)CC3)CC2)c1	-27%	-18%
O=C(CSc1cn(CC(=O)N2CCCCC2)c2ccccc12)NCc1ccccc1	-7%	-8%
CN(C)N=Nc1ccc(S(N)(=O)=O)cc1	i	-1%
OCCc1c[nH]c2ccc(C(F)(F)F)cc12	i	-23%

Source: PubChem BioAssay
